Mtb H37Rv: M. tuberculosis H37Rv growth inhibitors, H37Rv strain (AID 1626); inhibition, % at 10 µM, or IC50 in µM where a hit was titrated; M. tuberculosis H37Rv growth inhibition; higher % means a stronger effect; 220,000 compounds, 0.95% hits;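 active means confirmed in a dose series; inconclusive means inhibition above 80% but not taken into the dose series; inactive means below 80% or under 30% at every dose of the series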;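 further: bacteria incubated seven days before Alamar blue readout; 0% = bacteria only wells and 100% = bacteria with antibiotic wells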
Arbovirus inh: blocks arbovirus infection. arbovirus infection cell-based antiviral screen. inhibition, % at 10 µM. 200,000 compounds, 0.37% hits;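 active means inhibition from about 30%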;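 further: bluetongue infection of BSR cells; cell survival read as ATP light after 72 h; 0% = infected wells without compound and 100% = uninfected wells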
YopH inh: inhibitors of Yersinia enterocolitica YopH tyrosine phosphatase; fluorescence Ex485/Em525; inhibition, %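 (about 10 µM by stock and volumes)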; 140,000 compounds, 0.16% hits; AID 898;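 active means inhibition of 50% or more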;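 further: controls were vehicle for no effect and minimum signal wells for full effect; inactives centre near -20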
Mtb bLac sens: beta-lactam sensitization of Mtb H37Rv; M. tuberculosis H37Rv growth with meropenem, percent inhibition; hits of this screen are not shown here; inhibition, % at 25 µM; 330,000 compounds, 0.27% hits; AID 434955;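 active means about 74% or more and at least 40 points above the plate without the antibiotic, then above 30% in a dose series; inconclusive means first-round hits that could not be retested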;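 further: growth measured after seven days incubation then overnight dye step; 0% = bacteria only wells and 100% = bacteria with antibiotic; twin plates without the antibiotic show which effects depend on it; some results filed as inactive read as strong as hits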
RecA intein inh: inhibitors of M. tuberculosis RecA intein splicing | inhibition, %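 (about 9 µM by stock and volumes)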 | cell-free RecA intein splicing, fluorescence | 290,000 compounds, 0.75% hits | AID 2221; in the data active means inhibition above about 30%; inconclusive means no clear call, values can overlap the other calls;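 further: 0% = vehicle wells and 100% = reference inhibitor control wells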
Target sequence (P9WHJ3 whole entry, looked up): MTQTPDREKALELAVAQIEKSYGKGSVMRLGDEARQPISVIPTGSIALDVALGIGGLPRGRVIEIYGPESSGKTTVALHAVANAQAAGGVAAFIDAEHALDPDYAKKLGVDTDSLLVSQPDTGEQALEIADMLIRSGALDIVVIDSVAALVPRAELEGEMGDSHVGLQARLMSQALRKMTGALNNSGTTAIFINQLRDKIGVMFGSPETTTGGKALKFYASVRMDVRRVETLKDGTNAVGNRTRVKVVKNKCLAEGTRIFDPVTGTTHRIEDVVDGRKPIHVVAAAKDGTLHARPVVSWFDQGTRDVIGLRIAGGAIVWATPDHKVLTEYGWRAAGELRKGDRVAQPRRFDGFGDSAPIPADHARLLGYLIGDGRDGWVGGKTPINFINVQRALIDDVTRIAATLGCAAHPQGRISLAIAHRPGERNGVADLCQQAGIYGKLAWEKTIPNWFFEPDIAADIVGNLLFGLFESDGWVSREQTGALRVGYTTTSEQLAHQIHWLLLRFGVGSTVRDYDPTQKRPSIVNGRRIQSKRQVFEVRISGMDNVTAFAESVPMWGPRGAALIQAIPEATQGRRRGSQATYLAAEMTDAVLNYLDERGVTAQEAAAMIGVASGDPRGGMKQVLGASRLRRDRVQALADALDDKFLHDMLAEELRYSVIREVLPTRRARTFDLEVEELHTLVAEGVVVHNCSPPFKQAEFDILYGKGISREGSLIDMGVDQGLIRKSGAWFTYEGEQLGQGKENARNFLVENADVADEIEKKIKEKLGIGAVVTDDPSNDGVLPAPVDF
Arbovirus inh repeat: second read-out of Arbovirus inh, no call of its own (marks repeat the call); inhibition, %; measured here: 10K subset replicate screen; many hits read low in the repeat;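 first of two repeat runs on a subset; 0% = infected and 100% = uninfected wells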
* marks the source's active call; other numbers are inactive results; ? = inconclusive; . = no result given; & = joins results of further samples. Some of the compounds tested; rates above refer to the full screens.

SMILES | Mtb H37Rv | Arbovirus inh | YopH inh | Mtb bLac sens | RecA intein inh | others
O=C(CCCc1nc(-c2ccc(Cl)cc2)no1)Nc1cccnc1 | 76% | 5 | 9 | 99 | 0.4
CC1C(=O)N(Cc2ccccc2)c2ccccc2N1C(=O)c1ccccc1 (configuration not stated) | . | . | . | 2 | 3.7
Cc1cc(OC(C)C(=O)N(Cc2cccs2)C2CCS(=O)(=O)C2)ccc1Cl (configuration not stated) | . | . | . | -1 | -2.0
CC(=O)C1C(c2ccc(F)c(F)c2)NC(=O)NC1(O)C(F)(F)F (configuration not stated) | -6% | 10 | -8 | -13 | 4.2
COc1cccc(CNC(=O)C2CCN(c3ncnc4c3nc3n4CCCCC3)CC2)c1 | . | . | . | 5 | -1.2
Cc1nn(CCCC(=O)NCc2ccc(F)cc2)c(=O)c2nccn12 | . | . | . | -7 | 0.5
O=c1[nH]c(C2CCCN(S(=O)(=O)c3ccccc3)C2)nc2c1nnn2Cc1cccc(Cl)c1 (configuration not stated) | . | . | . | 3 | 4.9
CCS(=O)(=O)N1CCN(S(=O)(=O)c2ccccc2)CC1 | -2% | -3 | 2 | -2 | 2.1
CC(=O)c1csc(CS(=O)(=O)c2ccccn2)n1 | 4% | . | . | 0 | 0.1
O=C(CCSc1ccccc1)NC1CCCC1 | -3% | -5 | -28 | -1 | 0.2
O=C(Cn1cc2c(n1)CCCC2)NCCCN1CCN(c2ccccc2F)CC1 | -5% | 0 | -43 | -7 | 1.6 | Arbovirus inh repeat=2
COc1cccc(-c2cn(-c3cccc(C(F)(F)F)c3)c(=S)[nH]2)c1 | . | . | . | 7 | -1.9
O=C(NCCN1C(=O)S/C(=C\c2ccc(OC(F)F)cc2)C1=O)[C@@H]1CCCN1C(=O)c1cccs1 | -6% | 0 | -34 | 2 | 7.9
C=CCn1c(CNC(=O)c2ccccc2C)nnc1SCC(=O)NC1CCCC1 | -7% | 8 | -21 | -2 | 0.5
CCOC(=O)Cn1nnnc1C(CC)N(Cc1cccs1)Cc1cc2ccc(OC)cc2[nH]c1=O (configuration not stated) | 1% | -7 | -22 | -3 | -3.8
Cc1c(O)c2ccccc2n(-c2ccccc2)c1=O | . | . | . | 22 | 0.4
COc1cccc(C(=O)Nc2nnc(-c3ccccc3)s2)c1 | . | . | . | 1 | -0.7
Cn1c(CCNC(=O)c2ccccc2Cl)n[nH]c1=S | -6% | 4 | -1 | 94 | -1.9
Cc1cccc(C2c3[nH]c4ccccc4c3CCN2C(=O)c2ccc(=O)[nH]c2)n1 (configuration not stated) | -12% | -6 | . | -2 | 2.3
CC(=O)c1ccc2c(c1)C1C(Cl)C(Sc3ccccc3[N+](=O)[O-])CC1C(C(=O)O)N2 (configuration not stated) | -2% | 6 | 2 | -7 | .
Cn1cnc(S(=O)(=O)N2CCN(c3ccccc3)CC2)c1 | . | . | . | 2 | 1.1
COc1ccc(NS(=O)(=O)c2cccc(Cl)c2)cc1S(=O)(=O)N1CCCCC1 | -2% | 16 | -11 | 0 | -4.2
COc1ccc(C(=O)Nc2cc(Cl)ccc2C(=O)O)cc1 | 6% | 47* | . | -1 | -0.2
COc1ccc(/C=C2/C(=O)ON=C2C)cc1Cl | . | . | . | -2 | 1.0

Compounds listed so far that have a CF3 group, in the order listed:
SMILES | Mtb H37Rv | Arbovirus inh | YopH inh | Mtb bLac sens | RecA intein inh | others
CC(=O)C1C(c2ccc(F)c(F)c2)NC(=O)NC1(O)C(F)(F)F (configuration not stated) | -6% | 10 | -8 | -13 | 4.2
COc1cccc(-c2cn(-c3cccc(C(F)(F)F)c3)c(=S)[nH]2)c1 | . | . | . | 7 | -1.9

Following part:
SMILES | Mtb H37Rv | Arbovirus inh | YopH inh | Mtb bLac sens | RecA intein inh | others
CCc1cc(=O)oc2cc(C)cc(OC(C)C(=O)NCC(O)c3ccccc3)c12 (configuration not stated) | . | . | . | 1 | -3.9
O=C(Nc1ccc(N2CCOCC2)c(Cl)c1)c1ccc2c(c1)OCCO2 | 3% | -6 | . | 0 | 0.6
O=C(c1ccc(-n2cncn2)c([N+](=O)[O-])c1)N1CCN(S(=O)(=O)c2ccccc2Br)CC1 | . | . | . | -4 | -8.6
CCC1(c2ccc(F)cc2)NC(=O)N(CC(=O)N2c3ccccc3NC(=O)C2(C)C)C1=O (configuration not stated) | . | . | . | -6 | 2.2
C=CCN1C(=O)/C(=C2/Sc3ccc(OC)cc3N2C)SC1=NCc1ccccc1 | 1% | 12 | . | 3 | -22
CCC(COC(=O)Nc1ccccc1)NC(=O)OC(C)C (configuration not stated) | -6% | -1 | . | -9 | 0.9
CC1CCN(C(=O)CSc2nnc(CSc3ncccn3)n2C)CC1 | -5% | 5 | -24 | -3 | 1.0
CSc1ccccc1-c1nnc(-c2ccccc2)o1 | 4% | -11 | -11 | 78 | 2.2
CC(C)S(=O)(=O)c1csc(C(=O)Nc2ccc(F)cc2)c1N | 2% | . | . | 4 | 1.8
Cc1ccc(NC(=O)CSc2n[nH]c(-c3ccncc3)n2)cc1C | -4% | 13 | -26 | 20 | -4.3
O=C(CC12CC3CC(CC(C3)C1)C2)NC(=S)NCc1ccccc1 | 3% | -2 | -31 | 9 | 1.5
O=C(Nc1cccc(C(=O)O)c1)/C(=C/c1cccc([N+](=O)[O-])c1)NC(=O)c1cccc(Br)c1 | . | . | . | -7 | 1.4
O=S(=O)(NC1CCCCC1)c1ccc(Cl)nc1 | -2% | 1 | 0 | -2 | 3.1
Cc1ccc(N2C(=O)CC(Sc3ncn[nH]3)C2=O)cc1 (configuration not stated) | 8% | -1 | -10 | -16 | 3.3
CCCc1ccc(OCc2ccc(C(=O)N3CCN(c4ccccn4)CC3)o2)c(OC)c1 | 3% | -44 | -23 | 24 | 1.8
Cc1cc(SCC(=O)O)nc2ccccc12 | -2%&-7% | -2 | . | -8&-4 | -1.2&0.2
Cc1ccc2c(c1)[C@@H]1CN(C)CC[C@@H]1N2C(=O)Nc1cccc(C(F)(F)F)c1 | 1% | -40 | -10 | 49 | 5.1
Cc1ccc2c(c1)c(C)c(C)n2CC(O)CN1CCOCC1 (configuration not stated) | -11% | 1 | -24 | -8 | -1.5
COc1ccc(N2CCSC2C(=O)NN)cc1 (configuration not stated) | -14% | -5 | -21 | -13 | .
COc1cccc(/C=C2\SC(=O)N(CC(=O)NC3CCS(=O)(=O)C3)C2=O)c1 (configuration not stated) | . | . | . | 6 | 4.9
CN(C)CCN(C(=O)CCS(=O)(=O)c1ccccc1)c1nc2cc3c(cc2s1)OCO3 | . | . | . | -2 | 1.0
CC(C)CN(C(=O)CCC(=O)OCC(=O)N(C)c1ccccc1)c1c(N)n(CC(C)C)c(=O)[nH]c1=O | . | . | . | -6 | -0.8
Cc1ccc(C(=O)N/C(=C/c2ccco2)C(=O)Nc2cccc(C)c2)cc1 | -4% | -2 | -23 | 0 | 4.6
Cn1c(SCC#N)nnc1-c1cccnc1 | -4% | -4 | -28 | -1 | -1.3
CCN(CC)CCCN1C(=O)C(=O)/C(=C(/O)c2ccc3c(c2)OCCO3)C1c1ccco1 (configuration not stated) | 2% | -6 | -21 | -4 | -1.8
CC1CC(C(F)(F)F)n2nc(C(=O)O)cc2N1 (configuration not stated) | 0% | 3 | -23 | 4 | -0.4
Cc1cc(C)n(-c2nc(Nc3ccccc3C(F)(F)F)nc(-n3nc(C)cc3C)n2)n1 | ? | -26 | -15 | 96 | 5.3
Cc1c(OCC(=O)N[C@H](C(=O)O)c2ccccc2)ccc2c3c(c(=O)oc12)CCCC3 | . | . | . | -1 | -1.0
CCOC(=O)C1=C(N)Oc2c(c(=O)[nH]c3ccccc23)C1c1ccccc1 (configuration not stated) | -12% | -16 | 1 | -13 | -7.1
COc1ccc(S(=O)(=O)N2CCN(Cc3ccccc3)CC2)cc1OC | . | . | . | -2 | -0.7
CCC(C)[C@H](NC(=O)NCC1CCCO1)C(=O)OC (some centres not stated) | -6% | 1 | -11 | -13 | .
CN(C)Cc1ccccc1Sc1ccc2c(c1)CCCC2 | . | . | . | -8 | 5.2
O=C(O)C1CC(c2ccccc2)=NO1 (configuration not stated) | -15% | 2 | -32 | -4 | 5.2
Cc1ccc(NC(=O)c2ccc(CNc3c(N4CCC(C)CC4)c(=O)c3=O)cc2)cc1 | 0% | . | . | 28 | -1.5
CC(=O)N(c1ccccc1C)S(=O)(=O)c1ccc(Cl)cc1 | 6% | -6 | . | 10 | 2.9
CN1CCN(C(=O)/C(=C/c2cn(S(=O)(=O)N(C)C)c3ccccc23)NC(=O)c2ccccc2)CC1 | . | . | . | 4 | 3.2

Retrieved by compound from above:
SMILES | Mtb H37Rv | Arbovirus inh | YopH inh | Mtb bLac sens | RecA intein inh | others
CCOC(=O)C1=C(N)Oc2c(c(=O)[nH]c3ccccc23)C1c1ccccc1 (configuration not stated) | -12% | -16 | 1 | -13 | -7.1
CN1CCN(C(=O)/C(=C/c2cn(S(=O)(=O)N(C)C)c3ccccc23)NC(=O)c2ccccc2)CC1 | . | . | . | 4 | 3.2
CC1CC(C(F)(F)F)n2nc(C(=O)O)cc2N1 (configuration not stated) | 0% | 3 | -23 | 4 | -0.4
CC(=O)N(c1ccccc1C)S(=O)(=O)c1ccc(Cl)cc1 | 6% | -6 | . | 10 | 2.9
COc1ccc(S(=O)(=O)N2CCN(Cc3ccccc3)CC2)cc1OC | . | . | . | -2 | -0.7
Cc1c(OCC(=O)N[C@H](C(=O)O)c2ccccc2)ccc2c3c(c(=O)oc12)CCCC3 | . | . | . | -1 | -1.0
O=C(O)C1CC(c2ccccc2)=NO1 (configuration not stated) | -15% | 2 | -32 | -4 | 5.2

Next section
SMILES | Mtb H37Rv | Arbovirus inh | YopH inh | Mtb bLac sens | RecA intein inh | others
CCOC(=O)N1CCC(NC(=O)Cn2c3ccccc3c3cn[nH]c(=O)c32)CC1 | -5% | 1 | -29 | . | .
CCOc1ncccc1C(=O)Nc1nnc(C(CC)CC)s1 | -2% | -6 | . | 3 | 1.9
Cc1nc(N2CCCCC2)c2c(C)c(C(=O)Nc3ccc4c(c3)OCCO4)sc2n1 | . | . | . | 98 | 0.2
COc1ccc(Cl)cc1NC(=S)N(Cc1ccccc1C)CC1CCC(C(=O)O)CC1 (configuration not stated) | 7% | 12 | . | 5 | -1.5
CN1CC(=O)N(CC(=O)Nc2ccc(F)cc2)c2ccccc2C1=O | -5% | 17 | -41 | 0 | .
Cc1ccccc1C(=O)NC(=S)N(CCO)Cc1ccccc1 | . | . | . | 8 | -1.4
COc1ccc(CNC(=O)C2Cc3cc(S(=O)(=O)N4CCCC4)ccc3N2C(C)=O)c(OC)c1 (configuration not stated) | . | . | . | -2 | -1.0
Cc1cc(C)n(-c2nnc(C)n2NC(=O)c2cccc(Cl)c2)n1 | -10% | 5 | -23 | -4 | -2.4
CCNC(=S)NNC(=O)c1csc2c1CCC(C)C2 (configuration not stated) | -6% | 8 | 6 | 17 | 2.2
COC(=O)CN1C(c2ccccc2O)Nc2ccc(Br)cc2C1c1ccccc1 (configuration not stated) | 7% | 8 | -27 | 4 | 2.8
C=CCN(c1ccccc1)S(=O)(=O)c1cccc(C(=O)NCC(c2ccc(F)cc2)N2CCOCC2)c1 (configuration not stated) | . | . | . | 2 | -4.6
O=C(Nc1ccc(-n2nncc2-c2ccco2)cc1)c1cccc(F)c1 | . | -5 | -48 | -5 | 1.4
Cc1csc(SCC(=O)N2CCN(S(=O)(=O)c3ccc(Cl)cc3)CC2)n1 | . | -1 | -65 | -4 | 1.3
O=C(O)Cn1nnc(-c2ccc(OCc3ccccc3Cl)cc2)n1 | . | . | . | -2 | -1.3
COc1ccc(Cl)cc1NC(=O)CN(c1ccccc1)S(=O)(=O)N(C)C | -11% | -2 | 21 | 3 | 3.5
COC(=O)c1ccc(OCC(O)Cn2nnc3ccccc32)cc1 (configuration not stated) | 0% | 1 | -13 | 3 | -2.6
CC(=O)c1cccc(NC(=O)Cn2cc3c(n2)CCCC3)c1 | -2% | 10 | -32 | 0 | -0.3 | Arbovirus inh repeat=-4
COc1ccc(C(=O)c2c3ccc([N+](=O)[O-])cc3[n+]([O-])n2CCCC(N)=O)cc1 | . | . | . | 83 | 6.4
CN(CCC#N)C(=O)CSc1nnc(-c2ccco2)n1N | 7% | 5 | . | 1 | 4.1
Nc1nc(-c2c(Cl)cccc2Cl)no1 | 3% | . | . | 1 | 5.3
Cc1nnc(NC(=O)CSc2nnc(Cc3cccn3C)n2CCc2ccccc2)s1 | 0% | 12 | -34 | . | -0.3
Cn1c(=O)[nH]c(=O)c2c1nc(Br)n2C/C=N/NC(N)=S | . | . | . | -10 | -3.3
CCCOc1ccccc1NC(=O)c1ccc([N+](=O)[O-])cc1 | -6% | -4 | . | 11 | -2.2
O=C(N/N=C/c1ccc(O)cc1)c1csc2c1CCCC2 | 5% | -5 | -23 | 24 | 5.4
O=C(CCc1nc2ccccc2[nH]1)Nc1ccc2c(c1)OCO2 | 53% | -21 | -19 | 26 | 1.5
